Screens: PubChem BioAssay, National Center for Advancing Translational Sciences (NCATS)
AmpC nodet inh – blocks E. coli AmpC beta-lactamase in absence of detergent; P00811; AmpC nitrocefin hydrolysis, absorbance 480 nm, no detergent; potencies from a single point are estimates; Potency, µM (series often up to 28.7 µM), for inactives: at the top dose activity change, negative = inhibition; hit rate 1.8% among 71,000; active = falling curve, for most hits resting on a single point; inconclusive = weak or doubtful change; inactive = flat or rising curve; further: % of control where 0% means no effect; about half of the hits show no inhibition at the top dose; a quarter of the inactives give rising signals
Target sequence (P00811 whole entry, looked up): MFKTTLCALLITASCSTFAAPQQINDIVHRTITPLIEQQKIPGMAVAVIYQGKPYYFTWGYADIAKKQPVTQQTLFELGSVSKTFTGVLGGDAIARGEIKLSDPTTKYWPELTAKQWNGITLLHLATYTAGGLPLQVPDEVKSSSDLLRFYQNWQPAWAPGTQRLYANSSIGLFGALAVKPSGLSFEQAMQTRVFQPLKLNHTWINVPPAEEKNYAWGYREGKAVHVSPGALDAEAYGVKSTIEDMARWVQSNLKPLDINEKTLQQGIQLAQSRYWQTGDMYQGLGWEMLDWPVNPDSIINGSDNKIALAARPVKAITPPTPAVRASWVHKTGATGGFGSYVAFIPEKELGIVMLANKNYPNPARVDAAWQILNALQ
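AmpC in 20 mM phosphate buffer pH 7.0 was preincubated 15 min at room temperature with compounds. Nitrocefin (800 uM stock) was then added and hydrolysis followed at 480 nm every 20 s for 4 min.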
Active calls of the source: *; [ ] = another dose, or the depositor's remark. Potency means the concentration at half of the fitted maximal effect. A portion of the library. The share of hits here may be higher or lower than overall.

SMILES	AmpC nodet inh
CC12C=CC3(CN(Cc4ccccc4)C(=O)C3C1C(=O)NC1CC1)O2 (stereo unspecified)	9%
COc1ccc(OC)c(NC(=O)CSc2nnc(Cc3cccn3C)n2CCc2ccccc2)c1	114%
CC(C)NC(=O)C1CCN(Cc2cnn(-c3ccccc3)c2-n2cccc2)CC1	19%
CN(c1cccc(NS(=O)(=O)c2cccs2)c1)S(C)(=O)=O	-4%
COC(=O)c1cc(=O)nc2sc(-c3ccc(F)cc3)nn12	-1%
COc1cc(C2NC(=O)NC(C)=C2C(=O)OCc2ccc(C)cc2)cc(OC)c1O (stereo unspecified)	72%
Cc1nc(SCC(=O)N2CCC(C(N)=O)CC2)n[nH]1	0%
O=C(CSc1nc2ccccc2s1)Nc1ncccn1	-11%
CCOc1ccccc1NC1c2ccccc2C(=O)N1c1ccc(C)cn1 (stereo unspecified)	-3%
COc1cc(C(=O)N2CCC(NC(=O)C(Cc3ccc(C)cc3)NC(C)=O)CC2)cc(OC)c1OC (stereo unspecified)	80%
O=C1Nc2c(Br)cc(Br)cc2C1(O)N1CCOCC1 (stereo unspecified)	2%
CC1Cc2nc(SCC(=O)NCC3CCCO3)n(Cc3ccccc3)c(=O)c2S1 (stereo unspecified)	48%
CN1CCC(NC(=O)c2cccs2)CC1	-10%
CCCC(=O)c1cc2cc(Cl)ccc2oc1=O	-9%
COc1ccc(CNC(=O)CSc2nc3nc(C)cc(C)n3n2)cc1	-4%
CCC(C)c1c(O)nc(SCC(=O)N2CCOCC2)[nH]c1=O (stereo unspecified)	-4%
Cc1ccc2c(c1)N(CC(=O)N(Cc1ccc3c(c1)OCO3)CC1CCCO1)C(=O)C(C)O2 (stereo unspecified)	112%
COc1cccc(-c2cc(C(=O)NC3CCCC3)no2)c1	1%
CC(=O)c1ccc(NC(=O)CSc2nc3nc(C)cc(C)n3n2)cc1	8%
COC(=O)[C@H](CCSC)NC(=O)Nc1ccc(OC)cc1	4%
c1ccc2c(c1)oc1c(Nc3ccc(CN4CCOCC4)cc3)ncnc12	55%
Cc1noc(C)c1S(=O)(=O)N(CCc1ccccc1)Cc1ccccc1	-10%
Cc1ccc(C(=O)O)cc1S(=O)(=O)NCC1CCCO1 (stereo unspecified)	23%
CNP(=S)(NC)OCCOc1ccc(OC)cc1	2%
CS(=O)(=O)N1CCC2(CCCN(C(=O)Nc3ccccc3)C2)CC1	8%
NCCNc1ncnc2ccc(Cl)cc12	-9%[5.75 µM]
COc1ccc(NC(=O)N2CCC3(CC2)CCN(S(=O)(=O)c2ccccc2)CC3)cc1	46%
CCOC(=O)N1CCN(C(=O)N2CCOCC2)CC1	-4%
Cc1ccc(-n2c(SCC(N)=O)nnc2-c2ccccn2)cc1C	12%
COc1ccc(-c2noc(-c3ccccc3C(=O)NCc3ccco3)n2)cc1	13%
CCC(C)(C)NC(=O)C(OC(=O)c1cc2sccc2n1C)c1ccc(OC)cc1 (stereo unspecified)	26%
COc1ccc(OC)c(NC2=NC3(CCCC3)N=C(N)N2)c1	3%
COc1ccc(Cl)cc1NC1=NCC(C)S1 (stereo unspecified)	56%
O=C(Nc1cccc(Br)c1)c1cc2ccccc2o1	-4%
CCCS(=O)(=O)N1CCCC(C(=O)NCCN(C)Cc2ccccc2)C1 (stereo unspecified)	6%
COC(=O)[C@H](C)NC(=O)NCc1ccco1	-2%
COc1cccc(N2CCN(c3ncccn3)CC2)c1	13%
COc1ccc2c(c1)OC(O)(C(F)(F)F)CC2=O (stereo unspecified)	-24%
CC1CCN(C(=O)c2cccc(S(=O)(=O)N3CCCCC3)c2)CC1	31%
CC1(C)CC(O)C(CCC(O)c2ccccc2)C(C)(C)N1 (stereo unspecified)	0%
CC(C)C(c1nnnn1CCc1ccccc1)N1CCN(C(=O)c2ccco2)CC1 (stereo unspecified)	59%
O=C(C1CC1)N1CCc2cc(Br)cc(S(=O)(=O)NCCN3CCOCC3)c21	17%
c1cncc(-c2nnc3n2CCC3)c1	-1%
O=P1(Nc2cccnc2)COc2ccccc2OC1	9%
CCOC(=O)C1CCN(c2ncnc3c2oc2ccc(Cl)cc23)CC1	92%
CCOC(=O)C1=C(CNCCc2ccc(Cl)cc2)NC(=O)NC1c1ccc2c(c1)OCO2 (stereo unspecified)	16%
N#Cc1cccc(NC(=O)CC2CCCCC2)c1	-11%
Cc1ccc(Cl)cc1N1CCN(C(=O)C2CCN(S(=O)(=O)c3cccnc3)CC2)CC1	139%
CC1(C)Cc2c(C#N)c(OCC(=O)c3ccc(Cl)cc3)nc(-c3ccco3)c2CO1	12%
C=C[C@@]1(C)CC(=O)[C@@]2(O)[C@@]3(C)[C@@H](O)CCC(C)(C)[C@@H]3[C@H](OC(=O)CCN(C)C)[C@H](OC(C)=O)[C@@]2(C)O1	40%
O=c1ccc2ccc(OCc3nnc(-c4ccccc4Br)o3)cc2o1	-6%
CCOC(=O)c1sc(NC(=O)C(CC)Sc2nnc3c4ccccc4n(CC)c3n2)nc1C (stereo unspecified)	58%
Cn1nnc(C(O)CNCc2cccs2)n1 (stereo unspecified)	0%
CCOc1cc(N2CCOCC2)c(OCC)cc1NC(=O)c1nc2nccc(C)n2n1	63%
COc1cc2nc(C3CCC3)n(NC(=O)C(OC(C)=O)c3ccccc3)c(=O)c2cc1OC (stereo unspecified)	118%
CCNc1ncc2nc(C)c(=O)n(C)c2n1	28%
CN1CCN(c2ncnc3ccc(Br)cc23)CC1	4%
CCCSc1nc(O)c(CC)c(=O)n1C(C)CC (stereo unspecified)	-10%
CCCn1c(C)nc2c(NCCCN(C)C)nc(C)nc21	-1%
CCOC(=O)CNC(=O)Nc1nnc(-c2ccc(OCC)cc2)o1	4%
Continued.
SMILES	AmpC nodet inh
CC1(C)CC(=O)c2cnc(NC(=O)c3ccco3)nc2C1	-2%
CCC1(C)Cc2ccccc2/C(=C/C(=O)N2CCCCC2)N1 (stereo unspecified)	106%
Clc1ccc(Br)cc1-c1nc(-c2ccncc2)no1	0%
CCCCC(=O)Nc1cccc(-c2nc3ncccc3o2)c1	14%
Cc1cc(C)n(-c2nncn2NC(=O)c2ccc(Cl)cc2O)n1	0%
CS(=O)(=O)N1CCC(C(=O)NCCN2CCN(Cc3ccccc3)CC2)CC1	-1%
CC(C)CC1(C(=O)NCc2ccccn2)C=CCN1C(=O)c1ccccc1 (stereo unspecified)	29%
O=C(OCc1cccc2ccccc12)c1ccc2c(=O)[nH]c(CN3CCOCC3)nc2c1	131%
COc1ccc(CC(=O)Nc2ccc3c(c2)CCC3)cc1S(=O)(=O)N1CCOCC1	104%
Nc1nonc1C(=O)OCC(=O)N1CCCCC1	-11%
COc1ccc(N2CCN(Cc3nc4c(c(=O)n(C)c(=O)n4C)n3Cc3cccc(C)c3)CC2)cc1	1%
COc1ccc(NC(=O)c2oc3ccccc3c2NC(=O)c2ccc3c(c2)OCO3)cc1	-17%
CCCN(CC(=O)c1cc(C)n(C)c1C)S(=O)(=O)c1cccc(C(F)(F)F)c1	39%
CC(C)N(C(=O)CSc1nc2c([nH]1)c(=O)n(C)c(=O)n2C)c1ccccc1	-2%
O=C1c2ccccc2-c2ccc(NC(=O)[C@H]3CCCC[C@@H]3C(=O)O)cc21	-5%[5.75 µM]
CCCN(C#N)c1nc(NCC)nc(NC(C)C)n1	-8%
CC(C)(C)c1ccc(OCC(=O)N2CCN(C=O)CC2)cc1	35%
COc1ccccc1N1CCN(S(=O)(=O)c2cccc(F)c2)CC1	14%
Cn1c2ccccc2c2nnc(SCN3C(=O)c4ccccc4C3=O)nc21	25%
CCOC(=O)C1=C(C)NC2=C(C(=O)CCC2)C1c1ccc(N(C)C)cc1 (stereo unspecified)	19%
Cc1cccc(NC(=O)c2ccccc2C(=O)O)c1	4%
CC[C@@H](CO)NC(=O)[C@H]1C=C2c3cccc4c3c(cn4C)C[C@H]2N(C)C1	31%
Cc1nn2c(c1-c1ccccc1)NC1=C(C(=O)CCC1)C2c1cccnc1 (stereo unspecified)	9%
CCOC(=O)N1CCN(C(=O)c2ccc3c(=O)n(CCC4=CCCCC4)c(=O)[nH]c3c2)CC1	106%
Cc1cc(NC(=O)CCC(=O)N(C2CC2)C2(C(=O)NC3CCCC3)CCC(C)CC2)no1 (stereo unspecified)	54%
CCOCc1nnc(NC(=O)CSc2ccccc2)s1	-16%
Cc1ccc(CS(=O)(=O)CCC(=O)NCC2CCCO2)cc1 (stereo unspecified)	10%
O=C(c1ccccc1)N1CCCCC(Sc2nnnn2-c2ccccc2)C1=O (stereo unspecified)	16%
O=c1cc(-c2ccccc2)nc2nc(-c3ccco3)[nH]n12	50%
CN(C)C(=O)c1ccc(COc2ccccc2Br)o1	48%
CCOC(=O)CNC(=O)CSc1nc(C)cc(C)c1C#N	-5%
CCn1cc(C(=O)N2CC=C(c3ccccc3)CC2)c(=O)c2ccc(C)nc21	92%
c1ccc(-c2cc(CSc3nc4ccccc4[nH]3)on2)cc1	-9%
COc1cccc(-c2nn(C)c3sc(C(=O)N4CCOCC4)cc23)c1	136%
COc1ccc(Oc2ncc3nc(-c4ccc(F)cc4)c(=O)n(C)c3n2)cc1	-2%
COc1ccc(NC(=O)CCNC(=O)Cn2ccc3ccccc3c2=O)c(OC)c1	-2%
CCn1c(CSc2nc(C)cc(C)n2)nnc1SCC(=O)N1CCCc2ccccc21	61%
CCOC(=O)c1sc(C)c2c(=O)n(CCCN3CCOCC3)cnc12	20%
O=C1c2[nH]nc(-c3ccccc3O)c2C(c2ccc(F)cc2)N1CC1CCCO1 (stereo unspecified)	19%
OCCCNCc1cccc2ccccc12	3%
Cc1cccc(-c2nc(CS(=O)CC(=O)NCC3CCCO3)c(C)o2)c1 (stereo unspecified)	4µM*[single pt active]
C(=N\n1cnnc1)/c1ccc2c(c1)OCCO2	-6%
CC(=O)c1cccc(NC(=O)CCS(=O)(=O)c2cccc3nonc23)c1	-4%
OCCOCCNc1ncnc2nc[nH]c12	56%
CN(Cc1ccncc1)C1CC(=O)N(c2ccc(Cl)cc2)C1=O (stereo unspecified)	6%

Individual results from the results shown.
Entry for OCCOCCNc1ncnc2nc[nH]c12 under AmpC nodet inh: 56%
Entry for c1ccc(-c2cc(CSc3nc4ccccc4[nH]3)on2)cc1 under AmpC nodet inh: -9%

The results go on:
SMILES	AmpC nodet inh
O=C1c2ccccc2S(=O)(=O)N1Cc1cc(=O)n2ccsc2n1	3%
COc1ccc(Br)cc1-c1noc(-c2ccccc2F)n1	18%
COc1ccc(CN(CC(=O)NCC2CCCO2)C(=O)CCC(=O)Nc2cc(C)on2)cc1 (stereo unspecified)	33%
CCCCc1ccc(S(=O)(=O)Nc2cc(C)on2)cc1	-7%
CC1CCCN(Cc2nc3c(c(=O)n(C)c(=O)n3C)n2CCCc2ccccc2)C1 (stereo unspecified)	128%
CN(C)CCCOC(=O)c1ccc(Br)cc1	-2%
COc1nc(OC)nc(N2CCC(C(=O)Nc3cccc4ccccc34)CC2)n1	48%
C=CCNC(=O)C1CCN(c2nc(C)cc(-c3ccccc3)n2)CC1	86%
O=C(CSc1nnc(CNC(=O)c2c(F)cccc2Cl)o1)Nc1ccccc1	-7%
Cc1cc(C)c(OCC(=O)Nc2ccc3c(c2)OCO3)cc1C	-2%
COc1ccc(N(CC(=O)N2CCc3ccccc3C2)S(=O)(=O)c2c(C)[nH]c(=O)[nH]c2=O)cc1	4µM*[single pt active]
CSCCOC(=O)c1[nH]c2c(c1C)C(=O)CC(c1ccco1)C2 (stereo unspecified)	4%
c1ccc(B2OC[C@@H]3OB(c4ccccc4)O[C@H]([C@@H]4COB(c5ccccc5)O4)[C@@H]3O2)cc1	-44%[5.75 µM]
Cc1noc(C)c1S(=O)(=O)N1CCCC(C(=O)NCc2ccccn2)C1 (stereo unspecified)	18%
O=C(CN(C(=O)CNS(=O)(=O)c1ccccc1)C1CCCC1)NCC1CCCO1 (stereo unspecified)	-5%

Filtered by structure, those above containing an aryl thioether with sulfur outside any ring
SMILES	AmpC nodet inh
COc1ccc(OC)c(NC(=O)CSc2nnc(Cc3cccn3C)n2CCc2ccccc2)c1	114%
Cc1nc(SCC(=O)N2CCC(C(N)=O)CC2)n[nH]1	0%
O=C(CSc1nc2ccccc2s1)Nc1ncccn1	-11%
CC1Cc2nc(SCC(=O)NCC3CCCO3)n(Cc3ccccc3)c(=O)c2S1 (stereo unspecified)	48%
COc1ccc(CNC(=O)CSc2nc3nc(C)cc(C)n3n2)cc1	-4%
CCC(C)c1c(O)nc(SCC(=O)N2CCOCC2)[nH]c1=O (stereo unspecified)	-4%
CC(=O)c1ccc(NC(=O)CSc2nc3nc(C)cc(C)n3n2)cc1	8%
Cc1ccc(-n2c(SCC(N)=O)nnc2-c2ccccn2)cc1C	12%
CCOC(=O)c1sc(NC(=O)C(CC)Sc2nnc3c4ccccc4n(CC)c3n2)nc1C (stereo unspecified)	58%
CCCSc1nc(O)c(CC)c(=O)n1C(C)CC (stereo unspecified)	-10%
CC(C)N(C(=O)CSc1nc2c([nH]1)c(=O)n(C)c(=O)n2C)c1ccccc1	-2%
Cn1c2ccccc2c2nnc(SCN3C(=O)c4ccccc4C3=O)nc21	25%
CCOCc1nnc(NC(=O)CSc2ccccc2)s1	-16%
O=C(c1ccccc1)N1CCCCC(Sc2nnnn2-c2ccccc2)C1=O (stereo unspecified)	16%
CCOC(=O)CNC(=O)CSc1nc(C)cc(C)c1C#N	-5%
c1ccc(-c2cc(CSc3nc4ccccc4[nH]3)on2)cc1	-9%
CCn1c(CSc2nc(C)cc(C)n2)nnc1SCC(=O)N1CCCc2ccccc21	61%
O=C(CSc1nnc(CNC(=O)c2c(F)cccc2Cl)o1)Nc1ccccc1	-7%
